# Compound activity: PubChem, several laboratories
# MT1-MMP promoter: inhibitors of MT1-MMP promoter transcription, cell-based, luciferase reporter, luminescence (AID 618); MT1-MMP promoter luciferase reporter cells, luminescence; hit rate 0.62% among 87,000; calls from a first round at 10 µM; hits with a dose series show EC50 in µM;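 active = over half of the reporter light lost at 10 µM or EC50 under 50 µM; inactive = the rest and hits that failed the dose series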;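 also: actives suppress MT1-MMP promoter-driven transcription so potencies describe inhibitors; HT1080 fibrosarcoma cells; overnight exposure; toxic or luciferase-blocking compounds were not removed from the actives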
# WNV protease inh: inhibitors of WNV NS2B-NS3 protease, primary screen, biochemical, fluorogenic substrate; hit rate 0.18% among 65,000; Genome polyprotein (West Nile virus), P06935; fluorogenic substrate Ex360/Em465; hits give low values; AID 577, 2007; z-score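 (tested at a level between 10 and 100 µM)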;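 active = z-score at -3 or under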;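 also: score is relative to mean and spread of the compound wells of a plate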
# Target sequence (P06935 1371-1501 limits assumed): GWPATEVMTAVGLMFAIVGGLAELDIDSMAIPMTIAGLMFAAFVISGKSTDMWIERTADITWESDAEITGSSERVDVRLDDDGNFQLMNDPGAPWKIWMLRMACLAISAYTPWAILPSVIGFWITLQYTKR
# Target sequence (P06935 1502-1679 limits assumed): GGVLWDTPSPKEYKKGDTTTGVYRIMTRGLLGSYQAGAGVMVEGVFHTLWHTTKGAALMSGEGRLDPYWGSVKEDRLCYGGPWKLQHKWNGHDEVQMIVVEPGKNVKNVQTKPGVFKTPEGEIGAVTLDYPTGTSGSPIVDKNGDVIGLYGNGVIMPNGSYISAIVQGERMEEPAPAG
# Hsc70: Hsc70 inhibitors, probe displacement, primary screen, biochemical, fluorescence polarization (AID 568); one-dose displacement, % at 20 µM; IC50 in µM for titrated hits; Hsc70 fluorescence polarization, probe displacement; higher % means a stronger effect; strong numbers were not always called active; 83,000 tested, under 10 active;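 active = displacement above 50% without optical interference and an IC50 on retest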;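 also: ATPase domain with a fluorescein-tagged ATP probe; 0% = vehicle and 100% = excess ADP; read after one hour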
# Numbers without * were called inactive; i = inactive; . = no result given; + = active, no number. The order is random (roughly 0.77% active in at least one column).
SMILES	MT1-MMP promoter	WNV protease inh	Hsc70
O=C(CC(O)(c1ccccc1)C(F)(F)C(F)F)c1cccs1 (stereo unspecified)	i	-0.66	4.8%
CCn1c(SCC(=O)Nc2cccc(F)c2)nc2c(c1=O)SC(C)C2 (stereo unspecified)	i	-0.2	5.4%
COc1ccc(OC)c(NC(=O)C23CCC(C)(C(=O)C2)C3(C)C)c1 (stereo unspecified)	i	-0.67	3.9%
COc1ccc(/C(O)=C2\C(=O)C(=O)N(CCN(C)C)C2c2cccc(OC)c2OC)cc1 (stereo unspecified)	i	-1.24	-1.2%
CCOC(=O)N1CCN(C(=O)C(NC(=O)c2ccc(CC)cc2)C(C)C)CC1 (stereo unspecified)	i	0.65	3.0%
CCOC(=O)c1c(C)[nH]c(C(=O)COC(=O)CSC)c1C	i	.	-2.2%
Cc1nc2sc(C(c3cccc(F)c3)N3CCCC(C)C3)c(O)n2n1 (stereo unspecified)	i	-0.84	4.0%
CC(C)C[C@H](NC(=O)[C@@H]1O[C@H]1C(=O)O)C(=O)NCCCCN=C(N)N	i	0.45	-0.9%
c1ccc(N(c2ccccc2)c2nc(N3CCOCC3)nc(N3CCOCC3)n2)cc1	i	1.22	1.6%
Cn1nc(OC(=O)Nc2ccccc2)cc1C(F)(F)F	i	.	-0.8%
COc1ccc(Nc2nc(N)nc(CSc3nnc(N)s3)n2)cc1	i	.	-2.2%
COc1ccc(C(=O)N(Cc2ccco2)Cc2cccs2)c(O)c1	i	1.51	-0.2%
CCn1ccc(C(=O)Oc2ccc(Cl)cc2)n1	i	.	4.1%
CCN(CC(O)COc1ccc(OCC(O)CN(CC)C2CCCCC2)cc1)C1CCCCC1 (stereo unspecified)	i	.	-3.2%
CC(=O)NC(Cc1c[nH]c2ccccc12)C(=O)N1CCc2ccccc2C1 (stereo unspecified)	i	-0.64	-0.4%
O=C(Nc1nc(-c2ccco2)c(-c2ccco2)s1)C1CC(=O)N(c2ccc3c(c2)OCCO3)C1 (stereo unspecified)	i	-2.1	-15.0%
COc1cccc(-n2c(COc3ccccc3C)nnc2SCC(=O)O)c1	i	-0.5	1.5%
CCn1c(N2CCC(C)CC2)nc2c1c(=O)n(C)c(=O)n2C	i	0.25	-1.6%
CCCC(C)C(=O)Nc1cccc(NC(C)=O)c1 (stereo unspecified)	i	-0.74	2.9%
CCOC(=O)c1c(C)[nH]c(C(=O)CSc2nnnn2-c2ccc(C)cc2)c1C	i	0.76	-12.2%
COc1ccc(C(=O)Nc2nc(-c3cccs3)c(NC(C)=O)s2)cc1	i	.	-1.7%
CCOC(=O)c1cccc(N2C(=O)C3C(C(=O)NC4CC4)C4(C)C=CC3(O4)C2C(=O)NC(C)(C)C)c1 (stereo unspecified)	i	1.58	0.8%
CCN1CCN(C(c2ccccc2)c2nnnn2Cc2ccccc2)CC1 (stereo unspecified)	i	.	-0.2%
O=c1nc(NCc2ccccc2Cl)cn[nH]1	i	.	-2.8%
Cc1cc(=O)n2c(nc3ccccc32)[nH]1	i	.	1.2%
Cc1cccc(C2N(c3ccc(F)cc3)C(=O)C3CCCN32)c1 (stereo unspecified)	i	-0.88	0.4%
CCc1ccc(Nc2cc(=O)n(C3CCCCC3)c(=O)[nH]2)cc1	i	0.23	-4.1%
CCOc1ccc(N2CC(C(=O)Nc3ccc(S(=O)(=O)N4CCOCC4)cc3)CC2=O)cc1 (stereo unspecified)	i	-0.27	-7.6%
CCOC(=O)c1cc(-c2ccco2)nc2c1c(C)nn2CCC#N	i	2.31	-2.8%
Cc1ccc(NCN2C(=O)C3CC=CCC3C2=O)cc1 (stereo unspecified)	i	.	-1.2%
Cc1cc2ncn(/N=C/c3cccnc3)c2cc1C	i	-0.02	-2.6%
CC(=O)Nc1nc2ccccc2n1Cc1ccccc1	i	.	5.3%
CC1(C)Cc2nc3sc(C(=O)NCCO)c(N)c3cc2CO1	i	.	-4.6%
Cc1ccc(NC(=O)CC2SC3=NCCCN3C2=O)c(C)c1 (stereo unspecified)	i	-0.42	20.3%
COc1cccc(C2/C(=C(\O)c3ccc4c(c3)OCO4)C(=O)C(=O)N2CCN(C)C)c1OC (stereo unspecified)	i	-0.31	-0.2%
C/C=C/Cn1c(SCc2ccc(Cl)cc2)nc2c1c(=O)[nH]c(=O)n2C	i	-0.92	-3.7%
O=C(c1cccc(C(=O)N2CCN(c3ccccc3)CC2)c1)N1CCN(c2ccccc2)CC1	i	-0.58	4.0%
C1=CC2CC1CC2CN1CCN(c2ccccc2)CC1 (stereo unspecified)	i	0.15	-2.7%
COc1ccc(NC(=O)C2CCCO2)cc1OC (stereo unspecified)	i	.	-7.1%
Cc1cc2nc(-c3ccc(SCC(=O)N4CCN(C(=O)c5ccco5)CC4)nc3)[nH]c2cc1C	i	-1.59	-3.3%
CC(=O)c1cccc(NC(=O)C2CCN(S(=O)(=O)c3ccc(C)cc3)CC2)c1	i	1.21	-1.9%
CCOC(=O)c1c(NC(=O)OC)sc2c1CCC2	i	0.01	-0.9%
Cc1ccc(N2CCCCn3c2nc2c3c(=O)[nH]c(=O)n2C)cc1	i	1.73	-3.1%
COc1ccccc1-c1cc(C(F)(F)F)nc(N2CCN(c3ccccc3)CC2)n1	i	-0.1	1.9%
O=C(Nc1ccccc1N1CCCC1)c1cccnc1Cl	i	.	0.4%
O=C(Nc1nccs1)c1cc2sccc2n1Cc1ccc(F)cc1	i	0.82	-7.1%
CC(=O)N1CCN(c2ccc(Nc3ncnc4c3oc3ccccc34)cc2)CC1	i	-1.78	3.4%
Cc1ccc(/C=N/N2CCN(Cc3ccc(Cl)cc3)CC2)o1	i	.	-2.6%
O=C(CCc1ccccc1)Nc1ccc(Cl)cn1	i	0.93	-1.0%
N#Cc1ccc(NC(=O)Nc2ccc(Cl)cc2)cc1	i	-0.73	-7.3%
COc1cc(NC(=O)c2onc(C)c2Cl)c(OC)cc1Cl	i	0.01	2.8%
O=CNC(Cc1ccccc1)C(=O)O (stereo unspecified)	i	.	-3.3%
COc1ccccc1C(=O)Nc1sc2c(c1C(=O)NCc1ccco1)CCCC2	i	.	-10.1%
CCN1C(=O)N(CC)C2C1N(C(C)=O)C(=O)N2C(C)=O (stereo unspecified)	i	0.19	-2.6%
Cc1cc(C(F)(F)F)nn1CC(=O)NCc1ccccc1	i	1.29	7.1%
O=C(NCc1ccco1)c1cc2nc(C3CC3)cc(C(F)(F)F)n2n1	i	-0.25	7.4%
O=C(NCCN1CCCCC1)c1ccc2c(c1)OCCO2	i	-0.21	0.8%
CN(C)S(=O)(=O)c1ccc(C(=O)NCCOc2ccc(F)cc2)cc1	i	.	0.3%
Cc1nnc(SCc2ccccc2)nc1/C=C/NOCc1ccc(Cl)cc1Cl	i	.	0.3%
COc1cccc(/C=C2\C(=O)C(=O)c3ccccc32)c1	i	.	-5.2%

# Next entries follow.
SMILES	MT1-MMP promoter	WNV protease inh	Hsc70
CCc1nnc(NC(=O)Nc2ccccc2OC)s1	i	-0.08	-3.8%
CCn1cc(NC(=O)Nc2ccc(OC)c(OC)c2)c(C(N)=O)n1	i	-0.89	6.1%
Cc1ccc(C(=O)CSc2nnc(Cn3nnc4ccccc43)n2C)cc1	i	0.57	-6.1%
O=C(Cc1ccccc1)Nc1nc(-c2cccs2)cs1	i	-1.37	4.7%
CCN=C1SC(C(=O)NCCc2ccccc2)CC(=O)N1CC (stereo unspecified)	i	-1.22	0.5%
COC(=O)c1ccccc1NC(=O)CSc1nc(O)cc(=O)n1C1CCCC1	i	0.38	1.4%
Cc1cccc(/N=C/c2c(O)n(-c3cc(Cl)ccc3N3CCOCC3)c(=O)c3ccccc23)n1	i	1.16	6.7%
Cc1cc(NC(=O)CN2CCN(c3ccc(O)cc3)CC2)no1	i	.	0.7%
Cc1cc2occ(CC(=O)NC3=NCCS3)c2cc1C(C)C	i	-0.8	-4.0%
COC(=O)c1cc(Br)ccc1-c1ccc(/C=N/n2nnnc2N)o1	i	-1	3.9%
CCSc1nc2sc3c(c2c(=O)[nH]1)CC(C)(CC)OC3 (stereo unspecified)	i	.	-2.1%
CCOc1ccccc1N(CC)C(=O)Cn1ncc2c(=O)oc3ccccc3c21	i	-0.78	-1.0%

# 5 consecutive records already listed:
SMILES	MT1-MMP promoter	WNV protease inh	Hsc70
CCn1c(SCC(=O)Nc2cccc(F)c2)nc2c(c1=O)SC(C)C2 (stereo unspecified)	i	-0.2	5.4%
COc1ccc(OC)c(NC(=O)C23CCC(C)(C(=O)C2)C3(C)C)c1 (stereo unspecified)	i	-0.67	3.9%
COc1ccc(/C(O)=C2\C(=O)C(=O)N(CCN(C)C)C2c2cccc(OC)c2OC)cc1 (stereo unspecified)	i	-1.24	-1.2%
CCOC(=O)N1CCN(C(=O)C(NC(=O)c2ccc(CC)cc2)C(C)C)CC1 (stereo unspecified)	i	0.65	3.0%
CCOC(=O)c1c(C)[nH]c(C(=O)COC(=O)CSC)c1C	i	.	-2.2%

# The list continues:
SMILES	MT1-MMP promoter	WNV protease inh	Hsc70
O=C(CCn1nnc2ccccc2c1=O)N[C@H](C(=O)O)c1ccccc1	i	-2.21	-6.5%
N#Cc1nc(COc2ccccc2Cl)oc1NCc1ccc(F)cc1	i	0.6	-5.6%
COc1ccc(-c2cc(C(F)(F)F)nc(SCC(=O)Nc3cc(C)on3)n2)cc1	i	0.68	1.0%
CCc1ccc(CC2S/C(=C(\C#N)C(C)=O)NC2=O)cc1 (stereo unspecified)	i	.	-0.2%
O=C(c1cccc(F)c1)N1CCN(S(=O)(=O)c2ccccc2)CC1	i	0.36	-2.5%
O=C(CCN1CCCCC1)Nn1c(=S)[nH]c2ccccc2c1=O	i	0.79	-1.0%
O=C(Nc1cccc(NC(=O)c2ccc(-c3ccc(Br)cc3)o2)c1)c1ccccc1	i	.	2.1%
O=C(NCCSc1ccccc1)c1cccnc1	i	-0.04	0.4%
O=C1C2C3C=CC(C3=C(c3ccccc3)c3ccccc3)C2C(=O)N1CCO (stereo unspecified)	i	.	-2.0%
COCCN(C(=O)CCCC(=O)Nc1ccccn1)C(C(=O)NC1CCCCC1)c1ccc(C)cc1 (stereo unspecified)	i	-1.19	-5.3%
Cc1cccc(-c2cc3nc4c(c(N5CCCC(O)C5)n3n2)CCC4)c1 (stereo unspecified)	i	0.83	-14.1%
CCOc1ccccc1N(CC(=O)NC1CCCCC1)S(C)(=O)=O	i	1.17	-0.7%
Cc1ccc2c(c1)c1ncnc(N3CCC4(CC3)OCCO4)c1n2C	i	1.9	-4.3%
O=C(OCC(=O)N1CCN(c2ccccc2)CC1)c1ccc2ccccc2n1	i	.	3.6%
O=C(Nc1nc2c(s1)CCCC2)c1cc2n(n1)C(C(F)(F)F)CC(C1CC1)N2 (stereo unspecified)	i	0.08	4.9%
C=CCNc1nc(NCC)nc(N2CCOCC2)n1	i	.	3.2%
O=C(c1cn(-c2ccccc2)nc1-c1ccc(F)cc1)N1CCOCC1	i	1.27	-8.5%
O=C(OCCN(CCOC(=O)c1ccncc1)S(=O)(=O)c1cccs1)c1ccncc1	i	-0.31	6.7%
Cn1c2c(c(=O)n(C)c1=O)CN(CCN1CCNCC1)CN2	i	-1.03	2.2%
Clc1cccc(-c2nc(-c3ccccn3)no2)c1	+	-0.76	3.8%
CCN=c1sc(C(=O)OC)cc(=O)n1CC	i	.	9.2%
O=C(CCc1ccc(S(=O)(=O)N2CCOCC2)cc1)Nc1cc(Cl)ccc1N1CCOCC1	i	-0.2	-1.3%
Nc1cc(OC(=O)c2ccccc2Br)nn1S(=O)(=O)c1ccccc1	i	-6.2*	-10.1%
CC(=O)Nc1cccc(NC(=O)C2CCCN2C(=O)Nc2ccccc2C)c1 (stereo unspecified)	i	0.43	-4.9%
COc1ccc(C(=O)Nc2cc(-c3nn4c(C)nnc4s3)ccc2C)cc1	i	-0.85	-6.0%
CC1CCCCN1Cc1nc2c(c(=O)n(C)c(=O)n2C)n1Cc1cccc2ccccc12 (stereo unspecified)	i	3.56	4.3%
Cc1cc2cc(C(c3nnnn3CC3CCCO3)N3CCCc4ccccc43)c(=O)[nH]c2cc1C (stereo unspecified)	i	-0.83	-3.7%
Clc1ccc(Cn2ncc3c(NCCN4CCOCC4)ncnc32)cc1	i	-0.31	-3.1%
O=C(CN1CCOc2ccccc21)N1CCCC1	i	-0.06	2.9%
Cn1c(-c2ccc(C=O)s2)nc2ccccc21	i	.	-4.5%
CSc1nc2nc(-c3ccccc3)cc(=O)n2[nH]1	i	.	1.5%
O=C(NCCc1ccccc1)c1ccc2nc(-c3ccco3)c(-c3ccco3)nc2c1	i	.	4.1%
Nc1nc2ccccc2n1/N=C/c1ccc(Br)cc1	i	0.12	1.6%
CC(=O)N1CCCc2cc(S(=O)(=O)CCC(=O)N3CCN(c4cccc(C)c4)C(C)C3)ccc21 (stereo unspecified)	i	0.82	4.1%
Cc1ccc(SCC(=O)NCC(C)C)cc1	i	-0.61	8.4%
